High-throughput results deposited in PubChem BioAssay by ICCB-Longwood Screening Facility, Harvard Medical School.
GIV Gai3 FP: inhibitors of GIV peptide binding to Galpha-i3, primary screen, biochemical, fluorescence polarization, FITC-GIV GBA peptide, rat Galphai3; Guanine nucleotide-binding protein G(i) subunit alpha-3 (Rattus norvegicus), P08753; 90 min; active compounds read low; scaled: aluminum fluoride 0%, vehicle 100%; percent of control (FP), % (no concentration beside the values); 0.42% of 210,000 active; AID 1224905, 2016;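 active = replicate mean at 85% of control or lower, very high polarization wells dropped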;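 also: wells of about 15 µL received 100 nL stock; the first replicate is given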
Target sequence (P08753 whole entry, looked up): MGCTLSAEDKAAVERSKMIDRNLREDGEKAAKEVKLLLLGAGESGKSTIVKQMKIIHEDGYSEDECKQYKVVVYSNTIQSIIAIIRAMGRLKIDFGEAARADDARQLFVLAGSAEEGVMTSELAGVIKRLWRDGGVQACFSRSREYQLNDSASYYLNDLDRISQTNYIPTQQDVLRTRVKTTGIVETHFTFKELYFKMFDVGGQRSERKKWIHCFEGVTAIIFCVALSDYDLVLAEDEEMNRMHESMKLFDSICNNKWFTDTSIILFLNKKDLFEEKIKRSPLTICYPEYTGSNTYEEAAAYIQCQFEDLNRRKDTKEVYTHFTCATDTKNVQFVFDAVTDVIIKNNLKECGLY
Sa growth inh: S. aureus growth inhibition at 42 and 30 °C, primary screen, LtaS inhibitor project, RN4220, two temperatures | OD600, 20 h, 42 °C; active compounds read low | 0.53% of 170,000 active | relative growth, % (concentration not given with the values);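 active = growth at 42 °C up to 50% and 20 or more points under that at 30 °C, or under 10% at both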;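 also: 300 nL library stock went into each well; scaled to the means of positive and negative controls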
HCMV UL50-53 inh: inhibitors of HCMV UL50-UL53 interaction, biochemical, HTRF | HCMV UL50-UL53 nuclear egress complex (human cytomegalovirus) | normalized percent inhibition | inhibition, % (test concentration not listed) | 0.15% of 190,000 active | AID 1918969, 2023;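 active = both replicates at 50% or more, plus weaker picks with an unusually low signal ratio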;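 also: stock transfer was 100 nL into about 20 µL; 0% = negative control wells and 100% = wells with untagged competitor protein; inactives centre near -12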
Sa growth inh second temp: further read-out of Sa growth inh, marked with its call; relative growth, %; measured here: growth at 30 °C;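 optical density after 20 h as mean of two plates; 100% = untreated growth and lower means inhibition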
* hit, by the source's call; . = not tested or not shown; & = joins results of further samples.

Structure	GIV Gai3 FP	Sa growth inh	Sa growth inh second temp	HCMV UL50-53 inh
Cc1ccc(SCC(=O)Nc2c(Br)cnn2C)cc1	98	81	74	-20
Cc1cc(=O)n2c(n1)NC(N1CCc3ccccc31)=NC2c1ccc(F)cc1 (stereo not given)	99	.	.	-4
O=C(c1c(-c2ccc(F)cc2)nc2n1CCS2(=O)=O)N1CCCC1	99	.	.	-15
O=C(O)c1cc2c(s1)CCCCC2	103	114	109	-10
COCCN1C(=O)c2ccccc2C(C(=O)Nc2ccc(C(C)C)cc2)C1c1ccc(F)cc1 (stereo not given)	100	110	87	.
COc1ccc(-c2nc(=S)c3c(n2CCN2CCOCC2)CC(C)(C)OC3)cc1	104	90	94	-18
CC1CCc2c(sc3nc(SCC(N)=O)nc(NCc4ccccc4)c23)C1 (stereo not given)	107	82	77	33
Fc1ccc(-c2cn3nc4c(nc3n2)CCCC4)cc1	.	105	78	-56
COc1ccc(S(=O)(=O)N2CCn3c(nc4ccccc43)C2)cc1OC	104	103	92	-10
O=C(O)CCC(=O)NCc1c(Cl)cccc1Sc1ccc(Cl)cc1	111	112	94	0
CC1CN(C2CCN(Cc3ccccn3)CC2)CC(C)O1 (stereo not given)	103	101	86	-25
COc1cccc(Cn2c(C)c(CNC3CCCCC3)c(C(=O)O)c2C)c1	106	97	98	6

The results go on:
Structure	GIV Gai3 FP	Sa growth inh	Sa growth inh second temp	HCMV UL50-53 inh
COc1cccc(NC(=O)Cn2sc3ccccc3c2=O)c1	.	-0.2*	-0.2*	-20
N#Cc1ccc(COC(=O)C2CN(Cc3ccc(C#N)cc3)CCS2)cc1 (stereo not given)	.	95	96	0
Fc1ccc(CSc2nccn3nc(-c4ccc(F)cc4)cc23)cc1	106	.	.	-9
COc1cccc(CNC(=O)c2cc(S(=O)(=O)N3CCCCCC3)cn2C)c1	101	102	89	.
Cc1ccc(C(=O)OCC(=O)N2CCC(c3ccccc3)=N2)cc1	.	98	95	10
O=C1OC(C(=O)Nc2cccc(Br)c2)Cc2ccccc21 (stereo not given)	100	92	90	-3
CCOc1ccc(OC(=O)c2cn(-c3ccc(C)cc3)c(=O)c3ccccc23)cc1	113	100	95	.
Oc1c(C(c2ccccc2)N2CCOCC2)sc2nc(-c3ccco3)nn12 (stereo not given)	97	151	89	.
Cc1onc(-c2ccccc2Cl)c1C(=O)Nc1ccc2c(c1)oc(=O)n2C(C)C	99	.	.	-8
COc1cc(/C=C2/SC(=Nc3ccccc3)N(CCc3ccccc3)C2=O)ccc1OCC(N)=O	102	102	85	.
COc1ccc2[nH]c(=O)c(C(c3nnnn3Cc3ccccc3)N3CCCC3)cc2c1 (stereo not given)	103	99	91	-29
O=C(COC(=O)C12CCC(=O)N1c1ccccc1S2)N1CCC(c2ccccc2)=N1 (stereo not given)	.	98	95	-4

Additional entries
Structure	GIV Gai3 FP	Sa growth inh	Sa growth inh second temp	HCMV UL50-53 inh
COc1cccc(C(=O)NCC(=O)OCc2cc(=O)n3nc(CC(C)C)sc3n2)c1	106	.	.	-15
c1cc2c(cc1CN1CCSCC1)OCO2	94	109	79	-13
Cc1ccc(NC(=O)c2ccc(Oc3ccc(C(=O)Nc4ccc(C)cc4)cc3)cc2)cc1	.	98	89	-6
CC1CCN(S(=O)(=O)c2ccc3c(c2)CCN3C(=O)Nc2ccccc2Br)CC1	102	109	100	-3
Cc1nc(N)nc(OCC(F)(F)C(F)F)c1Br	100	113	110	-4
Cc1cc(-c2nn3c(COc4ccc(Br)cc4)nnc3s2)no1	103	.	.	-23
O=C(CSc1ccccc1)Nc1ccccc1C(F)(F)F	.	109	88	-32
COC(=O)C1=C(Cn2cnc3ccccc32)NC(=O)NC1c1ccc(OC)cc1 (stereo not given)	102	81	87	-11
Cc1ccc(CNC(=O)Nc2ccc(C(C)(C)C)cc2)n1C	112	95	85	-23
CCOc1ccc(C(=O)c2ccccc2C(=O)O)cc1OCC	.	110	101	4
CC(=O)N1CCOc2ccc(S(=O)(=O)N(C)CC(=O)Nc3ccc(C)cc3)cc21	98	93	96	-4
Cc1nn2c3c(cnc2c1-c1ccc(Cl)cc1)C(=O)CC(c1ccc(C(C)C)cc1)C3 (stereo not given)	107	112	90	4

Remaining list, next part:
Structure	GIV Gai3 FP	Sa growth inh	Sa growth inh second temp	HCMV UL50-53 inh
CCN1CCN(c2cc(C(=O)O)c3cc(NS(=O)(=O)c4cc(C)ccc4C)ccc3n2)CC1	102	.	.	-35
COc1ccc(CNc2ccc(C(=O)O)cc2)cc1	107	105	104	-4
CN(CC(=O)NCc1ccccc1Cl)S(=O)(=O)c1cccs1	104	113	84	-4
C=CCN1CCN(C2CCN(S(=O)(=O)c3cc(F)ccc3F)CC2)C(=O)C1=O	101	.	.	-15
COc1cc2c(cc1OC)C(c1ccc(C)s1)CC(=O)N2 (stereo not given)	107	92	97	2
Cc1ccc(C)c(-n2c(SCc3nc(-c4cccs4)oc3C)nnc2-c2cc3sccc3n2C)c1	96	94	84	-21
Cc1ccccc1NC(=O)N1CCN(Cc2ccc3nccnc3c2)CC1	105	.	.	-42
CC1=NN(C(=O)COc2cc(C)cc(C)c2)C(O)(C(F)(F)F)C1 (stereo not given)	105	119	97	.
CN(C)C(=O)c1ccc(-c2n[nH]c(=O)c3ccccc23)cc1	108	112	101	-5
CC(C)NC(=O)c1ccc(-c2ccccc2)s1	106	85	86	-32
CCOC(=O)N1CCC(N2Cc3ccc(C(=O)NCc4ccccc4OC)cc3C2=O)CC1	105	100	102	1
O=C(Nc1ccc2c(c1)N(C1CCCC1)C(=O)c1ccccc1S2)c1ccccc1	104	126	101	.

(next part)
Structure	GIV Gai3 FP	Sa growth inh	Sa growth inh second temp	HCMV UL50-53 inh
CCOC(=O)c1[nH]c(C)c(CCC(=O)NCc2ccc(C)cc2)c1C	100	118	86	.
O=C(NC1CCN(Cc2ccccc2)CC1)c1ccc(NS(=O)(=O)c2cccs2)cc1	103	106	85	.
Cc1ccccc1NC1SC(=O)N(CCC(=O)O)C1=O (stereo not given)	100	94	86	-10
C=Cc1ccc(Cn2nc(-c3ccc(C)cc3)ccc2=O)cc1	106	94	85	-25
O=C(CCCN1C(=O)/C(=C/c2cccc(Br)c2)SC1=S)NCCCN1CCOCC1	103	.	.	-58
COc1ccc(Nc2nc(C)c3nc(C)n(-c4ccc(OC)cc4)c3n2)cc1	100	.	.	-38
CC1CCN(C(=O)COC(=O)Cc2c(Cl)cccc2Cl)CC1	.	103	85	-27
CC(=O)O/C(=C\c1cn(C(C)=O)c2ccccc12)C(=O)O	.	114	86	-19
COC(=O)C1Cc2c([nH]c3ccccc23)CN1 (stereo not given)	107	.	.	-14
CC1CCN(c2nc3nonc3nc2Nc2cccc(Br)c2)CC1	99	.	.	-31
O=C(c1ccc2c(c1)OCCO2)N(Cc1cccnc1)c1nc2ccc(Cl)cc2s1	102&96	90	87	.
COc1ccc(N2CC(C(=O)OCC(=O)Nc3ccccc3C(F)(F)F)CC2=O)cc1 (stereo not given)	104	81	82	.

Following part.
Structure	GIV Gai3 FP	Sa growth inh	Sa growth inh second temp	HCMV UL50-53 inh
O=C(COn1nnc2ccccc21)NC(=O)Nc1ccc2c(c1)OCCO2	.	90	81	-10
CCCn1nnnc1Cn1cnc2scc(-c3ccc(C)s3)c2c1=O	.	116	99	6
COc1ccc(Nc2oc(-c3ccc(COc4ccc(OC)cc4)o3)nc2C#N)cc1	100	104	94	-8
Cc1nc(-c2ccc(-n3cc(C(=O)Nc4ccc(Cl)cc4C)c(C)n3)cc2)no1	102	.	.	-36
CCOC(=O)CCc1c(C(=O)OCC)[nH]c(CC)c1C(=O)OCc1ccccc1	106	88	81	3
CCOC(=O)c1c(-c2ccco2)csc1NC(=O)Cn1cnc2ccccc2c1=O	.	86	80	-36
CCc1cc(=O)oc2c3c(c(Cl)cc12)OCN(Cc1ccco1)C3	110	112	69	-62
c1ccc(COc2nsnc2N2CCOCC2)cc1	102	97	87	3
CCn1cc(-c2nc(-c3ccc(OC(C)C)cc3)no2)c(=O)c2cc(F)c(N3CCOCC3)cc21	102	.	.	-30
Cc1cccc(C(=O)Nc2cc3c(cc2N2CCOCC2)n(C)c(=O)n3C)c1	102	98	96	0
CC(=O)NC1(C(F)(F)F)N=C(c2ccc(C)cc2)NC1=O (stereo not given)	103	106	101	-6
Cc1cccc(NC(=O)c2cnn3c2NC(c2ccccc2)=CC3c2ccccc2)c1 (stereo not given)	98	.	.	-7

In the list so far, these contain a cyano group:
Structure	GIV Gai3 FP	Sa growth inh	Sa growth inh second temp	HCMV UL50-53 inh
N#Cc1ccc(COC(=O)C2CN(Cc3ccc(C#N)cc3)CCS2)cc1 (stereo not given)	.	95	96	0
COc1ccc(Nc2oc(-c3ccc(COc4ccc(OC)cc4)o3)nc2C#N)cc1	100	104	94	-8

(cont.)
Structure	GIV Gai3 FP	Sa growth inh	Sa growth inh second temp	HCMV UL50-53 inh
CCOC(=O)c1c(NC(=O)c2cccs2)sc(C(=O)Nc2cc(C(F)(F)F)ccc2Cl)c1C	98	.	.	-21
Cc1cc(C(=O)CSc2n[nH]c(-c3cccs3)n2)c(C)n1-c1nccs1	.	87	77	-19
COC(=O)CSc1nc2sc3c(c2c(=O)n1-c1ccc(OC)cc1)CCCC3	107	.	.	-11
COC(=O)c1ccc(OCC(O)CN2C(=O)c3ccccc3C2=O)cc1 (stereo not given)	101	94	79	-76
O=C(OCN1C(=O)c2ccccc2C1=O)c1ccc2c(c1)C(=O)N(Cc1ccco1)C2=O	.	82	95	-36
CCCOC(=O)c1c(NC(=O)c2nc3ncccn3n2)sc(C(=O)OCC)c1C	109	108	99	-14
Cc1cc(C)n(C(=O)c2sccc2S(=O)(=O)N(C)c2ccc(F)cc2)n1	104	.	.	-32
CCC1c2ccc(C)n2CCN1C(=O)Nc1cc(Cl)ccc1OC (stereo not given)	110	.	.	-22
CCO/C=N/c1oc(-c2ccccc2)c(-c2ccccc2)c1C#N	101	80	22	-30
CCOC(=O)c1c(C)n(-c2ccccc2)c2c1cc(OC(=O)C(C)(C)C)c1ccccc12	108	.	.	-6
CCc1cccc(OCC(=O)Nc2ccc(S(=O)(=O)Nc3cc(C)nc(C)n3)cc2)c1	103	94	90	-17
O=C(CSc1ccc(-c2cccs2)nn1)c1ccccc1	103	113	73	.

Continuation.
Structure	GIV Gai3 FP	Sa growth inh	Sa growth inh second temp	HCMV UL50-53 inh
COC(=O)c1ccc(S(=O)(=O)N(CCO)Cc2cc3cc(OC)c(OC)cc3[nH]c2=O)cc1	99	84	105	-1
CC(C)(C)C(=O)COC(=O)C1(c2ccc(F)cc2)CCCC1	.	113	83	-24
CC1CCC(C(=O)NC(C(=O)O)C(C)C)CC1 (stereo not given)	102	96	91	-1
O=C(NCc1ccccc1)c1ccc(CS(=O)(=O)Cc2ccccc2F)o1	111	97	87	-23
CC(C)(C)C(=O)NC1CCN(S(C)(=O)=O)CC1	102	103	91	-2
COc1ccc2nc(NNC(=O)c3ccc(S(=O)(=O)N4CCCC4)cc3)sc2c1	100	79	57	1
CCN(C(C)=O)c1nc(CSc2nnc(C3CCCCC3)n2N)cs1	.	71	93	-16
CCn1c(C)c(C2N3CC4(C)CN2CC(C)(C3)C4=O)c2ccccc21 (stereo not given)	100	92	88	-43
COc1ccccc1Cn1cc(C(=O)c2ccc(Cl)cc2)c(=O)c2ccccc21	108	97	88	8
CCc1ccc(NC(=O)c2cc3ccccn3n2)cc1	108	82	89	.
CSC1=NCCN1C(=O)COc1ccc2ccccc2c1	105	99	102	7
CCOc1ccc(N2C(=S)NC(c3ccc(N4CCOCC4)cc3)C(C(=O)N3CCOCC3)=C2C)cc1 (stereo not given)	.	74	81	-33

Further entries follow.
Structure	GIV Gai3 FP	Sa growth inh	Sa growth inh second temp	HCMV UL50-53 inh
O=C(c1noc2c1CCc1ccccc1-2)N1CCCC1	99	97	92	0
CC(C)CCNC(=O)C(=O)Nc1c2c(nn1-c1ccc(Cl)cc1)CSC2	100	149	79	.
COc1ccc(-c2nc(CS(=O)(=O)CC(=O)NC3CCCCC3C)c(C)o2)cc1 (stereo not given)	109	97	96	-4
COc1cc(NC(=O)C2=CC(c3ccco3)=NS(=O)(=O)N2C)cc(OC)c1OC	104	114	96	-23
COc1ccc(-n2ncc(C(=O)NCCC(C)C)c2C2CCNCC2)cc1	107	97	104	17
Cc1ccc(-n2c3c(c(=O)[nH]c2=O)C(NS(=O)(=O)c2ccc(Cl)cc2)(C(F)(F)F)C(=O)N3)cc1 (stereo not given)	101	102	99	-2
COc1ccc(OC)c(-n2c(C)cc(/C=C3/C(=N)N4C(=NC3=O)SN=C4S(=O)(=O)CC(C)C)c2C)c1	105	80	67	7

Compound profiles, as listed above:
COCCN1C(=O)c2ccccc2C(C(=O)Nc2ccc(C(C)C)cc2)C1c1ccc(F)cc1 (stereo not given) across the screens: GIV Gai3 FP = 100; Sa growth inh = 110; Sa growth inh second temp = 87; HCMV UL50-53 inh = .
CCOC(=O)c1c(C)n(-c2ccccc2)c2c1cc(OC(=O)C(C)(C)C)c1ccccc12 across the screens: GIV Gai3 FP = 108; Sa growth inh = .; Sa growth inh second temp = .; HCMV UL50-53 inh = -6
